Screening data from PubChem BioAssay.
2A StopGo: lowers the luciferase signal of an FMDV 2A StopGo reporter. Potency, µM (highest dose often 57.9 µM), inactives show top-dose signal change, negative = less light. human cells with a luciferase reporter of 2A StopGo recoding; control for the full effect not named in the record. AID 1159524. 410,000 tested, 1.2% active; active = well fitted falling curve with a large enough effect; inconclusive = small, poorly fitted or top-dose-only effect; inactive = no such curve, though single readings can be large or run the other way; tested in HEK293T cells; note: % is set by controls: 0 for no effect and ±100 for the full control effect; nearly all actives have a fitted effect of over 45% in size; luciferase light after 4 h
NS1 function inh: blocks influenza NS1 protein function | S. cerevisiae slowed by influenza A NS1, growth recovery by OD600 | Potency, µM (titrated, usually from 46.1 µM), for the others: top-dose activity, positive = more growth | 270,000 tested, 0.4% active | AID 2326; note: actives are rising curves; nearly all actives have a fitted effect of over 50% in size
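In this qHTS, NS1 from influenza A is expressed in budding yeast, where it slows growth. Cells are switched from glucose to 2% galactose medium (pH 6.0, -URA), treated with compound, and growth recovery is read at OD600.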
RE007 growth inh: less growth of the S. pombe RE007 Vpr strain. AID 651644. S. pombe RE007 Vpr strain, BacTiter-Glo ATP luminescence, 24 h; control for the full effect not named in the record. Potency, µM (top dose mostly 92.2 µM), without a hit: at the highest dose activity change, negative = less growth. 360,000 tested, 0.21% active; active = well fitted falling curve with a large enough effect; inconclusive = small, poorly fitted or top-dose-only effect; inactive = no such curve, though single readings can be large or run the other way;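 note: % is set by controls: 0 for no effect and ±100 for the full control effect; nearly all actives have a fitted effect of over 50% in size; the assay follows cell death caused by Vpr and the record does not say whether a fall means rescue or toxicity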
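Fission yeast strain RE007, carrying one chromosomally integrated HIV-1 vpr copy, was seeded at OD 0.01 in PMG+AL medium with 23 nL pinned compound. After 24 h at 30 °C and 99% humidity, viability was read by BacTiter-Glo luminescence.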
Cruzain inh Det: inhibitors of Trypanosoma cruzi cruzain with detergent; P25779; purified cruzain, Z-FR-AMC fluorescence, 0.01% Triton; Potency, µM, for the others: max response, negative = inhibition, hits mostly inhibitors; 200,000 tested, 0.43% active; AID 1478; active = well fitted curve in the direction sought with a large enough effect; inconclusive = small, poorly fitted or top-dose-only effect, or another doubt; inactive = no such curve, though single readings can be large; an effect the other way counts as inactive or inconclusive;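 note: plate controls were neutral wells for no effect and buffer without enzyme for full effect; nearly all actives have a fitted effect of over 40% in size; top concentration of the series not given in the record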
Target sequence (P25779 123-467 limits assumed): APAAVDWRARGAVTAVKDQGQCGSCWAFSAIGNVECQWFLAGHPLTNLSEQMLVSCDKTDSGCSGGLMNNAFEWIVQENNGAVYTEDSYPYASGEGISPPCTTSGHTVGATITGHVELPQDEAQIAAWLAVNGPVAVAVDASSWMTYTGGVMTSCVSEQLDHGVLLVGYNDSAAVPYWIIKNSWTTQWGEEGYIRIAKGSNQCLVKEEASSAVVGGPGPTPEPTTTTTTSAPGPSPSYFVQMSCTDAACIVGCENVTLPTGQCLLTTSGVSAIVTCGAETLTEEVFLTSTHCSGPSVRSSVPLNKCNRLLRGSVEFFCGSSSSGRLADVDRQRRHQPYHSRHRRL
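Cysteine protease activity tested under reducing, mildly acidic conditions (100 mM sodium acetate pH 5.5, 5 mM DTT) plus 0.01% Triton X-100. Cruzain 1.5 nM; substrate Z-FR-AMC 2 uM; 15 min compound preincubation at room temperature.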
SARS PLpro yeast: inhibitors of SARS-CoV papain-like protease in yeast. S. cerevisiae expressing SARS-CoV PLpro, growth rescue; control for the full effect not named in the record. Potency, µM (doses to about 32.9 µM), for inactives: top-dose activity, positive = growth rescue. 330,000 tested, 0.19% active; note: 0% is about no effect; nearly all actives have a fitted effect of over 55% in size; growth read by luminescence after 48 h
Cruzain inh noDet: blocks cruzain activity in detergent-free assay; P25779; purified cruzain, Z-FR-AMC fluorescence, no detergent; Potency, µM, without a hit: max response, negative = inhibition, most hits filed as inhibitors; 200,000 tested, 2.3% active; AID 1476; active = well fitted curve in the direction sought with a large enough effect; inconclusive = small, poorly fitted or top-dose-only effect, or another doubt; inactive = no such curve, though single readings can be large; an effect the other way counts as inactive or inconclusive;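 note: plate controls were enzyme without inhibitor for no effect and buffer without enzyme for full effect; nearly all actives have a fitted effect of over 40% in size; top concentration of the series not given in the record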
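Purified cruzain at 1.5 nM, pre-incubated 15 min with compound at room temperature in 100 mM sodium acetate pH 5.5, 5 mM DTT, 0.00005% Triton X-100. Reaction started with 2 uM Z-FR-AMC; AMC fluorescence increase over 60 s gives rate.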
Lassa entry inh: inhibitors of Lassa virus binding or cell entry; Lassa virus pseudotype entry inhibition, cell reporter; control for the full effect not named in the record; Potency, µM (doses to about 37.9 µM), without a hit: top-dose activity change, negative = inhibition, actives largely listed as inhibitors; 300,000 tested, 1.2% active; active means well fitted inhibition curve with a large enough effect; inconclusive means small, poorly fitted or top-dose-only effect, or effect the other way; inactive means flat fitted curve, though single readings scatter; tested in HEK293 cells; note: % is set by controls: 0 for no effect and ±100 for the full control effect; nearly all actives have a fitted effect of over 50% in size; luciferase read-out
MARV entry inh: blocks Marburg virus binding to or entry into cells; 300,000 tested, 1.8% active; Marburg virus pseudotyped entry inhibition, cell reporter; control for the full effect not named in the record; about a third of the inactives were read at about 46 µM; Potency, µM (titrated, usually from 37.8 µM), for the others: at the highest dose activity change, negative = inhibition, hits mostly inhibitors; active = well fitted inhibition curve with a large enough effect; inconclusive = small, poorly fitted or top-dose-only effect, or effect the other way; inactive = flat fitted curve, though single readings scatter; tested in HEK293 cells; about a fifth of its hits are not listed in these tables; note: % is set by controls: 0 for no effect and ±100 for the full control effect; luciferase read-out
An asterisk follows results filed as active; ? = inconclusive; . = no result given; & = joins results of further samples; [ ] = dose if it differs, or a comment. Unless noted, calls come from the whole dose curve; as a rule, active means well fitted rising curve with a large enough effect; inconclusive means small, poorly fitted or top-dose-only effect; inactive means no such curve, though single readings can be large or run the other way. Potency is the fitted concentration of half-maximal effect.

mol | RE007 growth inh | Cruzain inh Det | 2A StopGo | Cruzain inh noDet | Lassa entry inh | NS1 function inh | MARV entry inh | SARS PLpro yeast
O=C(NCc1ccco1)C1CC(=O)N(c2cccc(Cl)c2)C1 (stereo not drawn) | -8% | . | 23% | . | -4% | 8% | 2%[46.1 µM] | 0%
CCCCN(CC)CCCNC(=O)c1ccc(CS(=O)(=O)c2ccccc2C)o1 | -5% | . | 7% | . | -11%[46.1 µM] | -3% | 8%[46.1 µM] | 1%
O=C(c1cccc(NC2=NC3CS(=O)(=O)CC3S2)c1)N1CCN(c2ncccn2)CC1 (stereo not drawn) | 1% | . | -6% | . | . | -11% | . | 6%
CCOc1ccc(NC(=O)CSc2nnc(COc3c(C)cccc3C)o2)cc1 | -3% | 0.0% | -22% | ? | -16% | -4% | 16%&16% | -10%
COc1cc(O)c(C(C)=O)cc1OC | 9% | -5.2% | 16% | 9% | 0% | 2% | 19%[46.1 µM] | 1%
CCN(CC)S(=O)(=O)c1cccc(-c2nnc(SCCOc3ccccc3C)o2)c1 | 10% | -2.1% | -27% | -4% | -39% | -6% | ? | -6%
Cc1ccc(CNC(=O)CCNS(=O)(=O)c2cccc3nsnc23)cc1 | 17% | -2.7% | 16%&12% | 3% | ? | 6% | -1%&-15%[46.1 µM] | 0%
CCOc1ccc(/C=N/NC(=O)C(=O)N2CCCCCC2)c2ccccc12 | -1% | . | -30% | . | . | -23% | . | -1%
CCN1CCN(C(=S)Nc2cccc(Cl)c2)CC1 | 6% | . | 4% | . | . | 7% | . | 1%
CCCc1cc(=O)oc2cc(C)c3c(C)coc3c12 | -4% | -0.4% | . | -7% | -11% | ? | ? | 0%
O=C(CC1(O)C(=O)N(CCc2ccccc2)c2ccccc21)c1ccco1 (stereo not drawn) | -3% | -1.5% | -4% | 1% | -5% | -8% | 0% | -1%
CCOC(=O)c1c(NC(=O)CCS(=O)(=O)c2ccccc2)sc2c1CC(C)(C)NC2(C)C | -18% | . | -8% | . | ? | 9% | -13% | 0%
CCS(=O)(=O)N1Cc2ccccc2CC1C(=O)Nc1nnc(SCc2ccc(F)cc2)s1 (stereo not drawn) | -2% | -3.7% | 0% | ? | 12% | ? | 0% | 13%
Cc1ccc(C)n1-c1sc2c(c1C#N)CCC(C)C2 (stereo not drawn) | -26% | -0.1% | -21% | -9% | 3% | 7% | 3%[46.1 µM] | 5%
C/C(=N/NC(=O)c1ccoc1C)c1cccc(NC(=O)C2CC2)c1 | -4% | -2.1% | 47%[activator] | -2% | -20% | -6% | ? | 4%
COC(=O)c1c(-n2cnnn2)sc(C)c1C | -3% | 4.0% | 20% | -15% | ? | 14% | -14%&-14% | -2%
CCSc1nsc(SCC)c1C(N)=O | -19% | -2.2% | 9% | -4% | -9% | 5% | 2% | 1%
O=C1/C(=C\c2ccco2)SC(=S)N1C1CCS(=O)(=O)C1 (stereo not drawn) | -7% | . | 0% | . | -6% | 4% | ? | -1%
CCOC(=O)c1c(C)oc2c1cc(NS(=O)(=O)c1ccc(C)cc1)c1ccccc12 | . | -8.3% | 25% | -19% | 2%[46.1 µM] | . | . | .
O=C(O)Cn1c(-c2ccccc2)cc2ccccc21 | 4% | . | -6% | . | . | -2% | . | 4%
Cc1cccc2cc(CN(CC3CCCO3)C(=O)c3cnccn3)c(=O)[nH]c12 (stereo not drawn) | 6% | 8.8% | -22% | -21% | 24% | -3% | -6% | 3%
CC(C)C(=O)Nc1ncc2c(n1)CC(c1cccs1)CC2=O (stereo not drawn) | 40% | -0.8% | 0% | -23% | 3% | 5% | -4% | 16%
Nc1nc(C(=O)N2CCOCC2)nn1S(=O)(=O)c1ccc(Cl)cc1 | -4% | 2.4% | 13% | -5% | 16% | ? | 17%&17% | -1%
O=C(OCc1cccc(F)c1)c1ccc2c(=O)n3c(nc2c1)CCC3 | -7% | . | -5% | . | 2% | -7% | 20%[46.1 µM] | -2%
O=C(CCCNS(=O)(=O)c1cccs1)N1CCc2ccccc2C1 | -10% | -0.9% | 0% | 13% | -11% | 2% | 12% | ?
CC(C)c1ccccc1 | -7% | 2.0% | -16% | 4% | . | . | . | -2%
c1ccc2sc(C3CCCNC3)nc2c1 (stereo not drawn) | -14% | -0.8% | 14% | -2% | 7% | -24% | 15% | 1%
COc1ccccc1C(=O)NNC(=O)c1csc(N2CCOCC2)n1 | 8% | . | -5% | . | -10% | . | ? | .
COC(=O)[C@@H](Cc1c[nH]c2ccccc12)NC(=O)CCC(=O)c1ccc(Br)cc1 | 9% | . | -10% | . | . | -37% | . | -8%
O=C(NNC(=O)c1ccccc1-c1ccccc1C(=O)O)c1cccc([N+](=O)[O-])c1 | -4% | 0.1% | 10% | -1% | 11% | -1% | -8% | -4%
O=Cc1cc([N+](=O)[O-])ccc1N1CCOCC1 | -12% | -2.0% | -14% | 8% | -19% | 8% | -40% | 8%
O=C(CSc1n[nH]c(-c2ccncc2)n1)Nc1ccccc1Cl | -3% | . | -19% | . | -16% | . | 17%[46.1 µM] | -4%
CCOC(=O)c1ccc(-n2c(O)c(/C=N/NC(=O)C3COc4ccccc4O3)c3ccccc3c2=O)cc1 (stereo not drawn) | 3% | -8.7% | -26% | 9% | ? | 8.9µM* | -15%&-15% | 4.5µM*
Cc1ccc(-n2ncc(C(=O)N3CCN(c4ccccn4)CC3)c2C2CCN(C(=O)OC(C)(C)C)CC2)cc1 | . | -0.2% | 2% | -13% | ? | . | . | .
O=c1c2ccccc2c(-c2ccccc2)nn1Cc1c(Cl)cccc1Cl | 4% | -4.5% | 18% | -6% | -13% | 3% | -18% | -9%
OC(COCc1cccs1)CN1CCN(c2cccc(C(F)(F)F)c2)CC1 (stereo not drawn) | -6% | -4.6% | -16% | -8% | 1% | -1% | ? | 1%
Cc1cccc(NC(=O)C2CCN(c3nnc(C)c4c(C)n(-c5ccccc5)nc34)CC2)c1C | . | -2.3% | -9% | 1% | 0%[46.1 µM] | . | . | .
COc1ccc(CCNC(=O)CCCCn2c(=O)c3ccccc3n(Cc3cccc(C)c3)c2=O)cc1OC | . | -2.9% | 0% | -7% | 0%[46.1 µM] | . | ? | .
C/C=C/C(=O)Nc1cccc(C2=NOC3(C2)C[C@@H](C(N)=O)N(C(=O)C(c2ccccc2)c2ccccc2)C3)c1 (stereo partly drawn) | 12% | . | -17% | . | . | -11% | . | 1%
Cc1ccc(S(=O)(=O)c2nnn3c2nc(N2CCN(c4ccccn4)CC2)c2ccccc23)cc1C | 7% | . | 5% | . | -17%[46.1 µM] | 5% | 0%[46.1 µM] | -1%
COc1ccc(S(=O)(=O)N/N=C(/C)c2ccco2)cc1 | 7% | . | 18% | . | 3%[46.1 µM] | -6% | ? | 7%
CCSc1nnc(-c2cccs2)o1 | 2% | -1.7% | 57%[activator] | 14% | ? | -5% | 15% | -5%
COc1ccc(C2(CNC(=O)c3ccc(Br)o3)CCOCC2)cc1 | 16% | -0.1% | -14% | 4% | 3% | -2% | 0% | -5%
CCCCN1C(=O)/C(=C2\SC(N3CCOCC3)=NC2=O)c2ccccc21 | -24% | . | 23% | . | . | 20% | . | 0%
COc1ccc2oc(=N)c(C(=O)Nc3ccc(C)cc3)cc2c1 | -3% | . | 29% | . | . | 4% | . | 0%
NC(=O)N1N=C2/C(=C/c3ccccc3)CCCC2C1c1ccccc1 (stereo not drawn) | 7% | . | -26% | . | -26%[46.1 µM] | 16% | ? | -26%
O=C(c1ccc(N2CCN(CCO)CC2)nc1)N1CCOCC1 | -5% | 0.5% | -17% | 16% | 15% | -9% | -3% | -1%
CN(C)c1ccc(C2CC(=O)NC3=C2C(=O)CC(C)(C)C3)cc1 (stereo not drawn) | -2% | -9.7% | . | 11% | 6% | 2% | 28% | 4%
COCCN(CCOC)C(=O)c1ccc(NS(=O)(=O)c2ccc3c(c2)OCCO3)cc1 | -2% | . | -17% | . | -12% | 11% | 8% | 1%
CCCCN(CCCC)C(=O)c1cc(Cl)ccc1[N+](=O)[O-] | -1% | -4.1% | -22% | 13% | ? | 0% | 12% | -6%
N/C(=N\OC(=O)c1ccc(Cl)cc1[N+](=O)[O-])c1ccccn1 | -16% | . | -14% | . | ? | -119% | ? | -25%
Cn1c(=O)c([N+](=O)[O-])c(NCc2ccc3c(c2)OCO3)c2ccccc21 | -14% | . | -5% | . | -19%[46.1 µM] | 3% | 11%[46.1 µM] | 2%
NC(=O)CN1C(=O)C(O)(CC(=O)/C=C\c2ccc3c(c2)OCO3)c2ccccc21 (stereo not drawn) | -6% | . | ? | . | . | . | 10%[46.1 µM] | 2%
COc1ccc(CC(=O)Nc2ccc(S(=O)(=O)Nc3cc(OC)nc(OC)n3)cc2)cc1 | 6% | . | 12% | . | 4% | 23% | 13%[46.1 µM] | -4%
O=c1c(Br)c(N2CCCCC2)cnn1-c1ccccc1 | -11% | . | 30% | . | . | . | -24%[46.1 µM] | 0%
COc1ccccc1C(=O)C1CCCN(C(=O)c2cccc(Cn3cccn3)c2)C1 (stereo not drawn) | -1% | . | -22% | . | -13% | 9% | -8% | 3%

Continuation:
mol | RE007 growth inh | Cruzain inh Det | 2A StopGo | Cruzain inh noDet | Lassa entry inh | NS1 function inh | MARV entry inh | SARS PLpro yeast
CCCn1c(=O)n(-c2cc(Cl)c(OC)cc2OC)c(=O)c2c3c(sc21)CN(C(C)=O)CC3 | . | -12% | 2% | ? | . | . | 12%[46.1 µM] | .
COC(=O)C1(C(=O)OC)NOC2C(=O)N(N(C)c3ncc(C(F)(F)F)cc3Cl)C(=O)C21 (stereo not drawn) | 3% | . | 36%[activator] | . | 17%[46.1 µM] | . | 9%[46.1 µM] | 2%
COC(CC(=O)NNC(=S)Nc1ccc(Cl)cc1)OC | 8% | . | 11% | . | -9%[46.1 µM] | . | ? | 4%
COc1cccc(C(c2sc3ncnn3c2O)N2CCc3ccccc3C2)c1 (stereo not drawn) | 3% | -6.7% | 7% | -4% | . | -34% | . | 24%
